Beta apoptosis: inhibitors of cytokine-induced beta cell apoptosis, primary screen, luminescence. INS-1E cytokine-induced death, ATP luminescence, 48 h; percent of positive-control rescue, neutral wells zero. protection from apoptosis, % (no concentration beside the values). 300,000 tested, 0.8% active. AID 435005, 2010;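 active = all replicates at 75% or more, or half of them and the mean; inconclusive = half reach 75% but not the mean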;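 also: 0% = cytokine-treated negative control wells and 100% = positive control rescue; higher means more ATP so stronger rescue from cytokine killing; wells of about 40 µL received 100 nL stock; the first replicate is given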
Vif A3G: inhibitors of Vif binding to APOBEC3G peptide, primary screen, biochemical, TR-FRET, GST-Vif 1-94, biotin-A3G peptide, dose response retest (AID 1117319). 260,000 tested, 0.57% active. Virion infectivity factor (Human immunodeficiency virus type 1 group M subtype B (isolate …. inhibition, %, or IC50 in µM where a hit was titrated. TR-FRET GST-Vif / biotin-A3G peptide binding; higher % means a stronger effect; test concentration not given here; strong numbers were not always called active;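 active = above the screen mean plus three standard deviations and confirmed in dose response; inconclusive = results disagree or hit not tested in dose response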;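 also: Vif residues 1-94 fused to GST binding biotinylated APOBEC3G peptide 110-148; 0% = full assay without inhibitor and 100% = GST in place of GST-Vif; retest series ran down from 100 µM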
LANA-H2B inh: blockers of LANA interaction with H2A/H2B – biochemical, FP readout, HTS, primary screen; inhibition, % (test concentration not listed); 320,000 tested, 0.6% active; Protein LANA1 (Human herpesvirus 8 type P (isolate GK18)), Q9QR71; cell-free LANA-H2A/H2B peptide, fluorescence polarization; in the data active = inhibition mostly above about 10%, no sharp cut-off; inactive = mostly below about 6.7%;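 also: stock transfer was 7.5 nL into about 10 µL; 0% = median of vehicle wells and 100% = median of positive control wells; one replicate is shown; the record names a cut of 25% in any replicate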
RanGTP-Imp inh: inhibitors of RanGTP-importin-beta interaction, primary screen, biochemical, FRET, CFP-Ran, YFP-importin-beta, homogeneous. inhibition, % (no concentration beside the values). cell-free CFP-Ran/YFP-importin-beta FRET ratio. 300,000 tested, 1.1% active;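 active = most replicates above 15%; inconclusive = exactly half above 15%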;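 also: 0% = DMSO wells and 100% = Ran loaded with GDP instead of GTP; wells of about 40 µL received 100 nL stock; the first replicate is given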
MLL AF4-AF9 inh: inhibitors of AF4 peptide binding to AF9, primary screen, biochemical, AlphaScreen, biotin-AF4 peptide, FLAG-AF9, single point. 350,000 tested, 0.47% active. inhibition, % at 10 µM. AID 651704, 2012;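 active = every replicate reaching a set inhibition limit, whatever the replicate mean, cut at about 25% in these data; inconclusive = mean inhibition reaches that limit but some replicates miss it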;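 also: 0% = plate neutral control median and 100% = total signal loss; the record names both 10 and 1 µM as test concentration; the first replicate is given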
Target sequence (P42568 whole entry, looked up): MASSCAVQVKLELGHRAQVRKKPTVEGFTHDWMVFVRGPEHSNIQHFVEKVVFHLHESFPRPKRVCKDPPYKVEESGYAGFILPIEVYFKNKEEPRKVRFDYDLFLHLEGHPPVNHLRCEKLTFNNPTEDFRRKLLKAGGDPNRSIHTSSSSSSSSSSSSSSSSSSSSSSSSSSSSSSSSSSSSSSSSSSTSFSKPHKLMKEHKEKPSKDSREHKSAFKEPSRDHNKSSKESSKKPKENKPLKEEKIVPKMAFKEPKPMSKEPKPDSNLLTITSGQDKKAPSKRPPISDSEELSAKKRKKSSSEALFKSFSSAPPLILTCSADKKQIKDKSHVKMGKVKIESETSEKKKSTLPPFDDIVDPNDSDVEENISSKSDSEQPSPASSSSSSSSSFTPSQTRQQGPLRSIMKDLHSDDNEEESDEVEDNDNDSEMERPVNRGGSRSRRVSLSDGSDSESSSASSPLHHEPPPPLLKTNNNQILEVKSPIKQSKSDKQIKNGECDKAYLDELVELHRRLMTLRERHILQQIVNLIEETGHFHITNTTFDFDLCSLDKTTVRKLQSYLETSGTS
T cruzi inh: inhibitors of intracellular T. cruzi growth, primary screen, luminescence, NIH3T3 host cells. T. cruzi beta-gal in NIH3T3, 90 h. inhibition, % (concentration not given with the values). 300,000 tested, 1.4% active. AID 1885, 2009;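 active = mean inhibition across valid replicates above about 55%, limit read from the data; inconclusive = mean below that limit but half or more replicates reach it; inactive = mean below it, under half of replicates reach it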;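 also: signal also drops with host cell toxicity which is not excluded here; 0% = plate median of DMSO wells and 100% = zero luminescence signal; higher percent means less beta-gal luminescence so fewer parasites; stock transfer was 50 nL into about 50 µL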
Bfl-1 A1 inh: caspase 3/7 activation in MEF A1-2A-BIM cells, primary screen, A1 inhibitor project, cell-based, luminescence, HTS. Caspase-Glo 3/7 luminescence, 3 h; percent of clofoctol response, vehicle zero. caspase activation, % (test concentration not listed). 330,000 tested, 0.066% active. AID 2462, 2010;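 active = over half of replicate activation scores above 10%, or exactly half above 10 with the replicate mean above 10; inconclusive = replicate mean below 10 yet half the replicates above 10; inactive = over half of replicates below 10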;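 also: wells of about 30 µL received 50 nL stock; many hits fall short of the cut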
Calb FLC: C. albicans growth inhibition with fluconazole, primary screen, CaCi-2 strain, Alamar Blue fluorescence | C. albicans CaCi-2 (fluconazole-resistant clinical isolate) + fluconazole, 48 h | growth inhibition, % (no concentration beside the values) | 300,000 tested, 0.57% active;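 active = most replicates above 75%; inconclusive = exactly half above 75%; inactive = most below 75%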;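 also: all wells also contain fluconazole at 8 µg/ml as a sub-toxic cotreatment; 0% = median of DMSO wells and 100% = median of geldanamycin control wells; wells of about 8 µL received 7.5 nL stock; the first replicate is given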
Starred values were filed as active, the others as inactive; ? = inconclusive; / = not tested or not shown.

Results follow in this order: Beta apoptosis, Vif A3G, LANA-H2B inh, RanGTP-Imp inh, MLL AF4-AF9 inh, T cruzi inh, Bfl-1 A1 inh, Calb FLC
#1 CCNC(=S)N/N=C/c1ccco1
 : -3, 31%, 3.3, -2.8, /, -21, 1.5, -2
#2 COc1cc(OC)c(/C=N/n2c(C3CCCCC3)n[nH]c2=S)c(OC)c1
 : /, -4%, -6.5, 0.2, -8.6, 6, 0.3, 26
#3 CCOc1ccccc1NC(=O)CSc1nc2c(c(=O)n1C)SC(C)C2 (stereo not drawn)
 : 0, -5%, -0.6, -2.6, -5.6, -6, -0.3, 10
#4 Cc1cccc(NCc2ccc(O)c3ncccc23)c1
 : 6, 4%, -4.0, 5.8, 2.6, -10, -0.7, ?
#5 COC(=O)c1cc(C(=O)OC)cc(-n2c(C)cc(C(=O)COC(=O)CNS(=O)(=O)c3ccc(C)cc3)c2C)c1
 : -15, -10%, 0.7, -3.5, -6.5, 1, 0.6, -5
#6 CC12CCC3(CO)COC(c4ccccc4O1)C2C3 (stereo not drawn)
 : 1, -8%, -1.9, 0.2, /, -3, 0.0, 3
#7 CCN(CC)CCCC(C)NC(=O)c1cccc(S(=O)(=O)N2CCc3ccccc32)c1 (stereo not drawn)
 : -1, 6%, -0.9, 0.8, 1.0, 38, 2.0, -25
#8 O=c1c2ccccc2nc(-c2ccc(Br)cc2)n1Cc1ccccc1
 : 11, 8%, -5.7, -0.6, 3.4, 23, 0.8, 15
#9 C=CCn1c(=O)c2ccccc2n2c(SC(C)C(=O)Nc3nc(-c4ccccc4)cs3)nnc12 (stereo not drawn)
 : 0, 17%, -0.8, -4.2, /, 17, 0.3, 0
#10 O=C(COc1ccc([N+](=O)[O-])cc1)NNC(=O)c1cccs1
 : /, -4%, 2.2, 2.9, -1.3, -13, 0.8, -3
#11 C/C(=N\NC(=O)CNC(=O)c1cccc(F)c1)c1ccc2ccccc2c1
 : 1, 1%, 2.4, 2.3, -4.8, 7, 0.5, -17
#12 Cc1ccc(CONC(=O)c2ccc([N+](=O)[O-])cc2)cc1
 : -6, 2%, /, /, 0.2, /, -0.1, /
#13 CC(C)(C)OC(=O)CNC(=O)c1nc[nH]c1C(=O)NCc1ccc(CNC(=O)OC(C)(C)C)cc1
 : 23, /, -0.6, -0.1, 3.1, 7, -0.2, 15
#14 CCc1ccc(OCC(=O)NNC(=O)c2cc(S(=O)(=O)N(C)C)ccc2N2CCCC2)cc1
 : 3, -6%, /, 3.1, -9.1, -3, 1.0, -1
#15 Cc1cc(-c2nnc(CCC(=O)NCc3ccc(OC(F)(F)F)cc3)o2)no1
 : -9, /, -1.1, -2.3, -0.7, 0, -0.5, 4

More entries:
Results follow in this order: Beta apoptosis, Vif A3G, LANA-H2B inh, RanGTP-Imp inh, MLL AF4-AF9 inh, T cruzi inh, Bfl-1 A1 inh, Calb FLC
#16 O=C(c1cccs1)N(c1ccc(F)cc1)C1C=CS(=O)(=O)C1 (stereo not drawn)
 : -2, -4%, -2.4, -1.8, 2.1, -10, 0.9, 7
#17 COc1cccc(NC(=O)c2ccc3c(c2)CCN3S(C)(=O)=O)c1
 : /, /, 6.0, -2.0, 0.0, -2, -0.5, -33
#18 CN(C(=O)CN1C(=O)/C(=C/c2ccccc2F)SC1=S)C1CCS(=O)(=O)C1 (stereo not drawn)
 : -9, /, 7.6, 3.2, -1.6, -2, 2.1, -4
#19 Cn1c(=O)oc2cc(S(=O)(=O)NCCC(=O)N3CC=C(c4ccccc4)CC3)ccc21
 : -2, 9%, -4.3, 18*, /, -11, 0.8, 5
#20 CCCn1c(N)c(N(CCOC)C(=O)c2cccc(C(F)(F)F)c2)c(=O)[nH]c1=O
 : -4, 2%, 5.3, -0.1, -0.5, -7, 0.5, -6
#21 COc1ccc([C@H]2CC(=O)C=C(c3cc(F)ccc3F)C2)cc1OC
 : -2, /, 0.9, /, 3.6, /, 0.5, /
#22 O=C(O)C1Cn2c(nc3c(c2=O)C2(CCCC2)Cc2ccccc2-3)S1 (stereo not drawn)
 : -2, /, -5.6, 2.3, -1.0, -18, 0.1, -6
#23 CCC(=O)NC(c1ccccc1)c1nc2ccccc2[nH]1 (stereo not drawn)
 : -2, 0%, -3.7, 2.6, /, 4, -2.7, 9
#24 COc1cc(C(=O)O)nc2ccccc12
 : -2, 13%, -3.9, 1.5, /, 11, 0.3, -14
#25 Cc1ccc(NC(=O)c2ccc(C#CC3(O)CCCCC3)cc2)cc1C
 : 3, -2%, 3.6, -2.4, -5.2, ?, 0.7, -7
#26 COc1cc2cc(C(=O)N/N=C/c3cccc(OC)c3OC)[nH]c2cc1OC
 : 0, 0%, 0.1, -1.7, 3.3, -9, 1.1, 1
#27 CCS(=O)(=O)N1CCCC(C(=O)NCc2ccc3c(c2)OCO3)C1 (stereo not drawn)
 : 2, -1%, 3.2, 3.4, /, -22, 0.1, -6
#28 CC(=O)C1=C(C)OC(N)=C(C#N)C1c1cccc([N+](=O)[O-])c1 (stereo not drawn)
 : -4, 7%, -8.1, -1.4, -0.2, -1, -0.5, -6
#29 COc1ccc(CCN2CC(C(=O)NCc3cc(C)on3)CCC2=O)cc1 (stereo not drawn)
 : /, /, /, -1.4, -0.8, -4, /, 1
#30 CC(C)=CCN1CCN(Cc2c[nH]c3ccccc23)CC1CCO (stereo not drawn)
 : /, /, -5.9, -1.8, 6.0, -3, 0.4, -11

3 structures already listed, arranged by length of the SMILES, ascending.
Results follow in this order: Beta apoptosis, Vif A3G, LANA-H2B inh, RanGTP-Imp inh, MLL AF4-AF9 inh, T cruzi inh, Bfl-1 A1 inh, Calb FLC
#27 CCS(=O)(=O)N1CCCC(C(=O)NCc2ccc3c(c2)OCO3)C1 (stereo not drawn)
 : 2, -1%, 3.2, 3.4, /, -22, 0.1, -6
#26 COc1cc2cc(C(=O)N/N=C/c3cccc(OC)c3OC)[nH]c2cc1OC
 : 0, 0%, 0.1, -1.7, 3.3, -9, 1.1, 1
#28 CC(=O)C1=C(C)OC(N)=C(C#N)C1c1cccc([N+](=O)[O-])c1 (stereo not drawn)
 : -4, 7%, -8.1, -1.4, -0.2, -1, -0.5, -6

Next part.
Results follow in this order: Beta apoptosis, Vif A3G, LANA-H2B inh, RanGTP-Imp inh, MLL AF4-AF9 inh, T cruzi inh, Bfl-1 A1 inh, Calb FLC
#31 Cc1[nH]c2c(C)cccc2c1CCNS(=O)(=O)c1cccc([N+](=O)[O-])c1
 : 2, ?, -2.1, ?, ?, 8, 2.1, 28
#32 NC(=O)c1ccccc1NC(=O)Nc1ccccc1Cl
 : -6, -2%, -4.9, -4.9, -3.8, -15, 0.2, -8
#33 CCOC(=O)c1cnc(SCC(C)C)nc1N
 : 16, 6%, -0.3, 2.5, /, -8, -4.2, -4
#34 Cc1ccc2oc(C(=O)NCc3ccc(S(N)(=O)=O)cc3)cc(=O)c2c1
 : -5, -3%, 0.0, 2.9, -2.3, -8, 0.1, 8
#35 Cc1ccc(OCC(=O)Nc2ccc(-c3nc4ncccc4o3)cc2)cc1
 : 3, ?, -0.9, 0.6, /, 3, -1.4, 15
#36 Cc1ccc(CCc2nnc(SCC(=O)Nc3cc(Cl)ccc3Cl)n2-c2ccccc2)o1
 : 0, -2%, /, 0.3, /, 22, 0.9, 3
#37 COc1cc(NC(=O)CN(C)S(=O)(=O)c2ccc3nc(C)sc3c2)cc(OC)c1
 : 3, -17%, 1.9, -1.9, 0.7, -5, 1.6, 7
#38 COc1ccccc1CC(=O)N1CCCc2cc(C)ccc21
 : 1, 0%, -3.1, 3.3, -3.2, 16, -0.1, 20
#39 CCCCC1=CC2=C(c3ccco3)C(=O)C(C)(OC(=O)c3ccc(OC)cc3)C(=O)C2=CN1C1CCCC1 (stereo not drawn)
 : -2, /, 3.2, -2.8, /, 30, -0.5, 15
#40 Cc1oc(-c2ccc(Cl)cc2)nc1CSCC(=O)NCCCN1CCOCC1
 : -3, 17%, 0.2, 7.1, /, 3, 0.1, 3
#41 O=C(Cn1cc2c(n1)CCCCC2)NCc1ccccc1
 : -2, 1%, 3.5, 3.8, -2.8, -6, ?, 7
#42 Cc1ccnc(NC2(C(F)(F)F)N=C3SCCN3C2=O)c1 (stereo not drawn)
 : -14, 1%, 3.5, -0.6, 0.2, -12, 0.5, 14
#43 COC(=O)C1CCN(CC(=O)Nc2ccc(OC)c(Cl)c2)CC1
 : -1, 1%, -0.3, 0.7, -1.0, 13, -3.5, 3
#44 CNC(=O)c1[nH]cnc1C(=O)Nc1ccccc1OC
 : 10, /, -0.5, 9.8, /, 6, -0.6, 12
#45 Cc1ccccc1C(=O)N1CCN(CCNC(=O)C(=O)Nc2ccc(Br)cc2)CC1
 : 0, /, 0.0, 3.9, -1.9, 2, -0.4, 2

Further results follow.
Results follow in this order: Beta apoptosis, Vif A3G, LANA-H2B inh, RanGTP-Imp inh, MLL AF4-AF9 inh, T cruzi inh, Bfl-1 A1 inh, Calb FLC
#46 Cc1nc2ccccc2n(CC(=O)Nc2cc(Cl)cc(Cl)c2)c1=O
 : 2, -10%, 4.5, -3.5, -1.2, 37, 0.2, -4
#47 CC1(C)c2cc(Cl)ccc2-n2c1cc(O)c(-c1ccccc1)c2=O
 : -1, -19%, 5.3, 0.3, -3.3, -10, 0.0, 15
#48 CC(=O)/C(N=Nc1c(C)n(C)n(-c2ccccc2)c1=O)=C(\C)O
 : -7, /, 1.6, 3.7, 0.0, -12, 0.3, -3
#49 COc1ccc(N2CCN(C(C)C(=O)N3CCCC3)CC2)cc1 (stereo not drawn)
 : -10, 5%, -3.5, 5.5, 1.1, -10, 0.6, -1
#50 COc1ccccc1OCCc1nnc(N)s1
 : -9, 0%, -8.5, 7.0, 4.6, -13, 0.0, 0
#51 OCCN(Cc1ccccc1)Cc1cccc(Cl)c1Cl
 : /, 7%, 1.9, -0.6, /, -2, 0.2, 2
#52 CCOC(=O)c1sc(NC(=O)c2ccc(CC)s2)nc1C
 : -3, -12%, -1.6, ?, /, 6, -5.4, -9
#53 COc1cc(NC(=O)n2ncc3cc(Cl)ccc32)cc(OC)c1
 : -1, /, 6.0, -8.7, 1.2, 29, -1.2, -5
#54 CNC(=S)N1CCC(NC(=O)C(Cc2ccc(F)cc2)NC(C)=O)CC1 (stereo not drawn)
 : -3, -8%, 3.9, 1.5, -0.9, -5, 0.7, -6
#55 C=CCN=C1N[C@@H](c2ccccc2)C(C(=O)OC)=C(C)N1CCOC
 : -7, /, 1.1, 4.5, -9.8, -45, 0.1, 0
#56 COc1ccc(C(=O)N2CC(c3ccccc3)CC2=O)cc1 (stereo not drawn)
 : 1, 11%, -5.0, 3.5, 1.0, -1, 0.2, -2
#57 Cn1c(=O)c(=O)n(C)c2cc(S(=O)(=O)N3CCCC3C(=O)Nc3ccc(F)cc3)ccc21 (stereo not drawn)
 : -4, 1%, 3.1, -2.0, -2.6, -12, 0.5, 10

Assay outcomes: PubChem, several laboratories

No enrichment for hits; overall some 4.3% were active at least once.
